A1 inhib: inducers of caspase activity in MEF A1-2A-BIM cells, primary screen, A1 inhibitor project, cell-based, CaspaseGlo luminescence | caspase-Glo luminescence, 3 h; percent of clofoctol signal, DMSO as zero | hit rate 0.51% among 21,000 | caspase activation, % (concentration not given with the values);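 active = most replicate scores above 10, or exactly half above 10 with mean activity above 10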;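 note: effector caspase 3 and 7 activity cleaving a DEVD luciferin substrate; 50 nL library stock added to about 30 µL; numbers are from one replicate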
BJeLR viab HTS: BJeLR cell viability loss, primary screen, luminescence, CellTiterGlo ATP; BJeLR fibroblasts viability, 48 h; HRASV12, hTERT and SV40 LT/ST transformed; viability loss activity score, % (concentration not given with the values); hit rate 0.64% among 30,000; in the data active = viability loss activity score above about 50%; about a fifth of its hits are not listed in these tables;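 note: higher score means fewer live cells and less ATP luminescence; stock transfer was 50 or 100 nL into about 30 µL; 0% = vehicle wells and 100% = a reference killing control; one replicate is shown; the record names a cut of 85%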
Active calls of the source: *; x = not tested or not shown. An excerpt, so the mix of outcomes need not match the whole.

SMILES	A1 inhib	BJeLR viab HTS
Cc1ccc(S(=O)(=O)/C(C#N)=C/Nc2cc(C(F)(F)F)cc(C(F)(F)F)c2)cc1	-0.1	17
C[C@@H]1CN([C@@H](C)CO)C(=O)c2cccc(NS(=O)(=O)c3cccs3)c2O[C@H]1CN(C)C(=O)Nc1cccc2ccccc12	x	5.6
C=CCOc1ccc2c3c(c(=O)oc2c1)CCC3	-0.7	-4.3
CC(C)NC(=O)Nc1ccc2c(c1)C(=O)N([C@@H](C)CO)C[C@@H](C)[C@@H](CN(C)C(=O)Nc1cccc3ccccc13)O2	-0.5	0.7
CCCc1ccc(OCC(O)CN2CC(C)OC(C)C2)cc1 (stereo not drawn)	0.7	6.1
CC(=O)NN1C(=O)c2cccc3c(N(C)C)ccc(c23)C1=O	1.4	2.7
O=C(/C=C/c1ccccc1)N1CCN(Cc2ccccc2)CC1	-3.9	2.4
O=S(=O)(NCCC12CC3CC(CC(C3)C1)C2)c1cccc2nsnc12	-0.8	2.2
Nc1cc(=O)nc(SCC(=O)Nc2ccc(Cl)cn2)n1-c1ccccc1	1.1	2.3
O=C(c1cccc(Cl)c1)N1CCCC1	0.2	10
O=C(c1cccs1)c1coc2ccc(O)cc12	-4.4	-3.7
COc1nc(C#N)nc(N2CCCCC2)n1	-1.0	5.0
C[C@@H]1CN([C@@H](C)CO)C(=O)c2cccc(NC(=O)NC3CCCCC3)c2O[C@H]1CN(C)C(=O)NC1CCCCC1	x	2.6
OCCN1CN=C(Nc2nc3ccccc3o2)NC1	0.3	2.6
C[C@@H]1CN([C@@H](C)CO)C(=O)c2cccc(NS(=O)(=O)c3ccc(Cl)cc3)c2O[C@@H]1CN(C)CC1CCCCC1	x	1.6
CN(CCC#N)C(=O)C1CCC(CNS(=O)(=O)c2ccccc2)CC1 (stereo not drawn)	0.0	-4.1
O=C(CC(c1ccccc1)c1cc(Br)ccc1O)NCCCN1CCOCC1 (stereo not drawn)	0.1	-0.8
Cc1ccc(S(=O)(=O)N(C)C[C@@H]2Oc3ccc(NS(=O)(=O)c4c(C)noc4C)cc3C(=O)N([C@@H](C)CO)C[C@H]2C)cc1	-0.2	1.5
Cc1ccc2c(c1)c(-c1ccccc1)c(-c1ccccc1)n2CC(O)Cn1c(C)cc(C)nc1=O (stereo not drawn)	-0.8	-4.7
O=C(NCc1ccco1)c1ccccc1SCc1ccc(F)cc1	0.4	2.1
CC(C)NC(=O)Nc1cccc2c1O[C@H](CN(C)Cc1ccc(Cl)c(Cl)c1)[C@H](C)CN([C@H](C)CO)C2=O	x	-0.8
NC(=S)/N=C1\CCCCC1=C1CCCCC1	1.8	1.1
C[C@H]1CN([C@@H](C)CO)C(=O)c2cc(NC(=O)Nc3ccc(C(F)(F)F)cc3)ccc2O[C@@H]1CN(C)S(=O)(=O)c1cn(C)cn1	-0.1	-0.2
COc1ccc(S(=O)(=O)Nc2ccc3c(c2)C(=O)N([C@H](C)CO)C[C@H](C)[C@@H](CN(C)C(=O)Nc2cccc4ccccc24)O3)cc1	0.4	1.7
COc1ccc(CC(=O)Nc2c3c(nn2-c2ccc(C)cc2)CSC3)cc1	-0.3	-3.7
Cc1ccc(S(=O)(=O)N(C)C[C@H]2Oc3ccc(NC(=O)Nc4c(C)noc4C)cc3C(=O)N([C@H](C)CO)C[C@@H]2C)cc1	0.0	4.8
C[C@H](CO)N1C[C@H](C)[C@H](CN(C)Cc2ccc3c(c2)OCO3)Oc2ccc(NC(=O)Nc3ccccc3)cc2C1=O	0.3	3.8
CCOC(=O)C(C)(C)Sc1nc(-c2ccc(F)cc2)nc2c1c(=O)n(C)c(=O)n2C	x	3.5
Cc1noc(C)c1NC(=O)N(C)C[C@H]1Oc2ccc(NC(=O)C3CCCCC3)cc2C(=O)N([C@H](C)CO)C[C@H]1C	1.0	-2.1
C/C=C1\C(O[C@@H]2O[C@H](CO)[C@@H](O)[C@H](O)[C@H]2O)OC=C(C(=O)OC)C1CC(=O)OC[C@H]1O[C@@H](OCCc2ccc(O)cc2)[C@H](OC(=O)CC2C(C(=O)OC)=COC(O[C@@H]3O[C@H](CO)[C@@H](O)[C@H](O)[C@H]3O)/C2=C\C)[C@@H](O)[C@@H]1O (stereo partly drawn)	0.4	-3.0
COc1ccc(S(=O)(=O)Nc2ccc3c(c2)C(=O)N([C@@H](C)CO)C[C@H](C)[C@@H](CN(C)C(=O)Nc2ccccc2)O3)cc1	2.9	3.1
CCOC(=O)c1cnc2c(ccc3ccccc32)c1NCc1ccco1	-1.4	3.5
C[C@H](CO)N1C[C@H](C)[C@H](CN(C)C(=O)Nc2ccc(F)cc2)Oc2ccc(NC(=O)C3CCCCC3)cc2C1=O	-0.3	-1.3
Cc1noc(C)c1NC(=O)N(C)C[C@@H]1Oc2ccc(NS(=O)(=O)c3cn(C)cn3)cc2C(=O)N([C@H](C)CO)C[C@H]1C	0.2	-2.0
C[C@@H]1CN([C@@H](C)CO)C(=O)c2cccc(NC(=O)Nc3ccc(C(F)(F)F)cc3)c2O[C@@H]1CN(C)C(=O)Nc1cccc2ccccc12	x	-12
CC1(C)CC(=O)c2ccc(O)cc2O1	0.1	-4.5

Part of the list above, with each value named.
CC(C)NC(=O)Nc1ccc2c(c1)C(=O)N([C@@H](C)CO)C[C@@H](C)[C@@H](CN(C)C(=O)Nc1cccc3ccccc13)O2
  A1 inhib: -0.5; BJeLR viab HTS: 0.7

CCCc1ccc(OCC(O)CN2CC(C)OC(C)C2)cc1 (stereo not drawn)
  A1 inhib: 0.7; BJeLR viab HTS: 6.1

Continuation:
SMILES	A1 inhib	BJeLR viab HTS
Cc1ccc2cc3c(nc2c1)N(c1ccccc1)CC3	-0.8	-4.1
N#C/C(N)=C(\C#N)N=Cc1ccc(C#N)cc1	0.4	-2.1
C[C@@H]1CN([C@H](C)CO)C(=O)c2cccc(NS(=O)(=O)c3ccc(F)cc3)c2O[C@H]1CN(C)C(=O)NC1CCCCC1	x	-2.1
C[C@@H]1CN([C@@H](C)CO)C(=O)c2cc(NC(=O)Cc3ccccc3)ccc2O[C@H]1CN(C)S(=O)(=O)c1ccc(F)cc1	-0.2	-0.7
COc1cc2occ(-c3ccc(O)cc3)c(=O)c2c(OC)c1O	1.2	14
c1ccc(Nc2c(-c3ccco3)nc3ccccn23)cc1	x	1.1
C[C@H]1CN([C@@H](C)CO)C(=O)c2cc(NC(=O)Cn3cnnn3)ccc2O[C@H]1CN(C)C(=O)NC1CCCCC1	-0.7	2.4
S=c1[nH]cnc2scc(-c3ccc(Cl)cc3)c12	x	4.0
O=C(CSC1=NC2(CCCC2)N=C1c1ccccc1)Nc1ccccc1	x	-3.1
CC(C)NC(=O)N(C)C[C@H]1Oc2c(NS(=O)(=O)c3cn(C)cn3)cccc2C(=O)N([C@@H](C)CO)C[C@H]1C	x	-7.8
O=C(NCCc1ccc(Cl)cc1)c1cc2c(=O)[nH]c3ccccc3c2s1	x	3.8
CSc1n[nH]c(=O)n1-c1ccc2c(c1)OCCO2	0.6	-0.8

An excerpt from above in order of the A1 inhib value, rising:
Molecule,A1 inhib
C[C@H]1CN([C@@H](C)CO)C(=O)c2cc(NC(=O)Cn3cnnn3)ccc2O[C@H]1CN(C)C(=O)NC1CCCCC1,-0.7
C[C@@H]1CN([C@@H](C)CO)C(=O)c2cc(NC(=O)Cc3ccccc3)ccc2O[C@H]1CN(C)S(=O)(=O)c1ccc(F)cc1,-0.2
N#C/C(N)=C(\C#N)N=Cc1ccc(C#N)cc1,0.4
CSc1n[nH]c(=O)n1-c1ccc2c(c1)OCCO2,0.6

Later entries:
SMILES	A1 inhib	BJeLR viab HTS
C[C@H](CO)N1C[C@H](C)[C@H](CN(C)S(=O)(=O)c2ccc(F)cc2)Oc2c(NC(=O)c3nc4ccccc4s3)cccc2C1=O	x	3.8
O=C(COc1ccc(Cl)cc1Cl)NC1CCS(=O)(=O)C1 (stereo not drawn)	-0.2	0.9
Cc1noc(C)c1S(=O)(=O)Nc1cccc2c1O[C@@H](CN(C)S(=O)(=O)c1ccccc1)[C@@H](C)CN([C@@H](C)CO)C2=O	x	1.2
CCCCN(C)c1ncnc2c1sc1nc3c(cc12)COC(C)(C)C3	-0.3	11
COC(=O)c1ccc(NC(=O)CC(CC(=O)O)c2ccccc2)cc1 (stereo not drawn)	0.6	2.6
Cc1nc(C(F)(F)F)nc(Sc2cccc(C(F)(F)F)c2)c1C	0.2	-5.1
C[C@H]1CN([C@@H](C)CO)C(=O)c2cc(NC(=O)CCC(F)(F)F)ccc2O[C@@H]1CN(C)Cc1ccc2c(c1)OCO2	-0.2	2.5
C[C@H]1CN([C@@H](C)CO)C(=O)c2cccc(NC(=O)C3CC3)c2O[C@@H]1CN(C)Cc1ccc2c(c1)OCO2	x	-9.7
CCCCC(=O)N1c2ccccc2C(Nc2ccccc2)CC1C (stereo not drawn)	-0.8	-1.4
CCCC(C)C(=O)Nc1ccc(S(N)(=O)=O)cc1 (stereo not drawn)	0.6	-1.7
CC(C)(C)c1ccccc1NC(=O)c1cccc(Cn2cc(Cl)cn2)c1	0.5	-0.1
CC(C)NC(=O)Nc1ccc2c(c1)C(=O)N([C@H](C)CO)C[C@H](C)[C@@H](CN(C)CC1CCCCC1)O2	0.3	-1.3
C[C@@H]1CN([C@@H](C)CO)C(=O)c2cccc(NC(=O)c3nc4ccccc4s3)c2O[C@@H]1CN(C)CC1CCCCC1	x	-3.4
c1nncn1N=C1CCCCC1	1.1	0.0
CC(C)NC(=O)Nc1cccc2c1O[C@@H](CN(C)S(C)(=O)=O)[C@@H](C)CN([C@H](C)CO)C2=O	x	-6.8
CCC(=O)N1CCc2cc(Br)cc(S(=O)(=O)NCc3ccccc3OC)c21	x	-2.9
Cn1c(=O)oc2cc(S(=O)(=O)NC(Cc3ccccc3)C(=O)NCc3ccco3)ccc21 (stereo not drawn)	x	-0.9
CCOC(=O)N1CC=C2C(C1)C(c1cccc(C(F)(F)F)c1)C(C#N)=C(N)C2(C#N)C#N (stereo not drawn)	7.1	-6.5
C[C@H](CO)N1C[C@H](C)[C@@H](CN(C)Cc2ccc(C(F)(F)F)cc2)Oc2c(NC(=O)NC3CCCCC3)cccc2C1=O	x	4.8
O=C1c2ccccc2S(=O)(=O)N1CCCCN1C(=O)c2ccccc2S1(=O)=O	0.0	-3.7
Cc1cc(=O)[nH]c(SCc2cn3c(C)cc(C)nc3n2)n1	-0.2	1.0
O=C(NCc1ccco1)c1ccc2c(=O)n(C3CCCCC3)c(SCc3cccc(F)c3)nc2c1	-1.5	0.3
COc1ccc(NC(=O)Nc2ccc3c(c2)C(=O)N([C@H](C)CO)C[C@H](C)[C@@H](CN(C)S(=O)(=O)c2ccc(F)cc2)O3)cc1	-0.1	-1.8
c1ccc(-c2nsc(NC3Cc4ccccc4C3)n2)cc1	-1.1	0.8
Fc1ccc(-c2cn3cccc(OCc4ccc(Cl)c(Cl)c4)c3n2)cc1	-0.2	-0.9
C[C@H](CO)N1C[C@H](C)[C@@H](CN(C)C(=O)NC2CCCCC2)Oc2c(NC(=O)c3cnccn3)cccc2C1=O	x	1.2
C[C@@H]1CN([C@@H](C)CO)C(=O)c2cccc(NC(=O)C3CCOCC3)c2O[C@@H]1CN(C)Cc1ccccc1	x	-2.7
CCCC(=O)Oc1ccc(N(C(=O)CCC)S(=O)(=O)c2ccccc2)cc1	x	-5.0
O=C(Nc1cccc(Cl)c1)Nc1nncs1	-3.6	19
O=S(=O)(NC1CCCCC1NC1CCCCC1)c1ccccc1 (stereo not drawn)	0.1	4.7
COc1cccc(NC(=O)c2ccc(OC)c(OC)c2)c1	-6.7	18
C/C(=N\O)c1ccc(O)cc1O	-0.1	2.1
C[C@H](CO)N1C[C@H](C)[C@@H](CN(C)S(=O)(=O)c2ccc(F)cc2)Oc2ccc(NS(=O)(=O)c3ccc(F)cc3)cc2C1=O	1.3	-0.7
C[C@H](CO)N1C[C@H](C)[C@H](CN(C)C(=O)Nc2ccc(C(F)(F)F)cc2)Oc2c(NC(=O)Nc3cccc4ccccc34)cccc2C1=O	x	-2.7
Cc1ccc(S(=O)(=O)N2CCN(S(=O)(=O)N(C)C)CC2)cc1	1.3	4.3
COc1cc(O)c(C(=O)c2c(O)cc(C)cc2O)c(C(=O)O)c1	-0.4	3.0
CCC(Sc1ccc2nnc(-c3ccc(C)cc3)n2n1)C(=O)O (stereo not drawn)	x	0.2
Cc1ccc(S(=O)(=O)c2ccc(C)cc2)cc1	-0.1	0.3
Cc1c(C(=O)Nc2ccccc2)cc(-c2ccccc2)n1-c1ccccc1	1.1	4.1
O=C(NC1CCCC1)C1CCN(S(=O)(=O)c2ccc3nc(-c4ccccc4)[nH]c3c2)CC1	0.8	3.9
CCCNC(=O)[C@H]1O[C@@H]1C(=O)N[C@H](C(=O)N1CCC[C@H]1C(=O)OC)C(C)CC (stereo partly drawn)	0.2	-5.3
COc1cc([C@H]2OC[C@H]3[C@@H]2CO[C@@H]3c2ccc(O)c(OC)c2)ccc1O	0.4	-3.7
C[C@H]1CN([C@@H](C)CO)C(=O)c2cccc(NC(=O)C3CCOCC3)c2O[C@H]1CN(C)C(=O)Nc1cccc2ccccc12	x	1.6
C[C@@H]1CN([C@H](C)CO)C(=O)c2cccc(NC(=O)C3CCOCC3)c2O[C@H]1CN(C)Cc1ccccc1	x	3.2
Cc1ccc(NC(N)=O)cc1	-0.2	-1.6

Nothing new here: entries from further up.
SMILES	A1 inhib	BJeLR viab HTS
COc1cc([C@H]2OC[C@H]3[C@@H]2CO[C@@H]3c2ccc(O)c(OC)c2)ccc1O	0.4	-3.7
C[C@H]1CN([C@@H](C)CO)C(=O)c2cccc(NC(=O)C3CCOCC3)c2O[C@H]1CN(C)C(=O)Nc1cccc2ccccc12	x	1.6
C[C@@H]1CN([C@H](C)CO)C(=O)c2cccc(NC(=O)C3CCOCC3)c2O[C@H]1CN(C)Cc1ccccc1	x	3.2
Cc1ccc(NC(N)=O)cc1	-0.2	-1.6

Assay outcomes: PubChem, Broad Institute
